Beta cell apopt: beta cell apoptosis inhibition; INS-1E cytokine-induced death, ATP luminescence, 48 h; percent of positive-control rescue, neutral wells zero; protection from apoptosis, % (no concentration beside the values); 0.8% of 300,000 active; AID 435005;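 active = all replicates at 75% or more, or half of them and the mean; inconclusive = half reach 75% but not the mean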;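 note: 0% = cytokine-treated negative control wells and 100% = positive control rescue; higher means more ATP so stronger rescue from cytokine killing; wells of about 40 µL received 100 nL stock; the first replicate is given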
rRNA inh HTS: inhibitors of bacterial rRNA selective over humanized ribosomes; E. coli WT GFP vs humanized-ribosome RFP mutants, fluorescence, 24 h; active compounds read low; DMSO median 0, no signal -100; GFP signal change (wild-type ribosome), % (no concentration beside the values); 1.6% of 350,000 active; AID 720706;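 active = significant combined selectivity score with lowered wild-type GFP, culture density cut under 30%, mutant RFP and density less affected; inactive = any of these conditions unmet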; note: one replicate is shown; some compounds called inactive have numbers as strong as hits
Vif TR-FRET: HIV-1 Vif–A3G interaction blockers – biochemical, TR-FRET, GST-Vif 1-94, biotin-A3G peptide, dose response retest, primary screen (AID 1117319). TR-FRET GST-Vif / biotin-A3G peptide binding; higher % means a stronger effect; test concentration not given here; strong numbers were not always called active. one-dose inhibition, %; IC50 in µM for titrated hits. 0.57% of 260,000 active;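 active = above the screen mean plus three standard deviations and confirmed in dose response; inconclusive = results disagree or hit not tested in dose response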;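 note: Vif residues 1-94 fused to GST binding biotinylated APOBEC3G peptide 110-148; 0% = full assay without inhibitor and 100% = GST in place of GST-Vif; retest series ran down from 100 µM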
A1 inh: inhibitors of the anti-apoptotic protein A1, read as caspase activation; MEF A1-2A-BIM cells, Caspase-Glo 3/7 luminescence, 3 h; percent of clofoctol response, vehicle zero; caspase activation, % (no concentration beside the values); AID 2462; 0.066% of 330,000 active;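 active = over half of replicate activation scores above 10%, or exactly half above 10 with the replicate mean above 10; inconclusive = replicate mean below 10 yet half the replicates above 10; inactive = over half of replicates below 10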;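 note: wells of about 30 µL received 50 nL stock; many hits fall short of the cut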
Calb FLC: affects C. albicans growth with fluconazole | 0.57% of 300,000 active | C. albicans CaCi-2 (fluconazole-resistant clinical isolate) + fluconazole, Alamar Blue growth, 48 h | AID 1979 | growth inhibition, % (concentration not given with the values);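 active = most replicates above 75%; inconclusive = exactly half above 75%; inactive = most below 75%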;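 note: all wells also contain fluconazole at 8 µg/ml as a sub-toxic cotreatment; 0% = median of DMSO wells and 100% = median of geldanamycin control wells; wells of about 8 µL received 7.5 nL stock; the first replicate is given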
T cruzi repl: blocks replication of Trypanosoma cruzi | T. cruzi beta-gal in NIH3T3, luminescence, 90 h | inhibition, % (test concentration not listed) | AID 1885 | 1.4% of 300,000 active;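 active = mean inhibition across valid replicates above about 55%, limit read from the data; inconclusive = mean below that limit but half or more replicates reach it; inactive = mean below it, under half of replicates reach it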;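 note: signal also drops with host cell toxicity which is not excluded here; 0% = plate median of DMSO wells and 100% = zero luminescence signal; higher percent means less beta-gal luminescence so fewer parasites; stock transfer was 50 nL into about 50 µL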
RanGTP-Impb inh: disruptors of Ran-importin-beta complex formation – biochemical, FRET, CFP-Ran, YFP-importin-beta, homogeneous, primary screen. cell-free CFP-Ran/YFP-importin-beta FRET ratio. inhibition, % (concentration not given with the values). AID 2216. 1.1% of 300,000 active;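 active = most replicates above 15%; inconclusive = exactly half above 15%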;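 note: 0% = DMSO wells and 100% = Ran loaded with GDP instead of GTP; wells of about 40 µL received 100 nL stock; the first replicate is given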
AF4-AF9 inh: inhibitors of human MLL-AF4/AF9 interaction; AlphaScreen, biotin-AF4 peptide binding to FLAG-AF9; inhibition, % at 10 µM; 0.47% of 350,000 active;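 active = every replicate reaching a set inhibition limit, whatever the replicate mean, cut at about 25% in these data; inconclusive = mean inhibition reaches that limit but some replicates miss it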;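 note: 0% = plate neutral control median and 100% = total signal loss; the record names both 10 and 1 µM as test concentration; the first replicate is given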
Target sequence (P42568 whole entry, looked up): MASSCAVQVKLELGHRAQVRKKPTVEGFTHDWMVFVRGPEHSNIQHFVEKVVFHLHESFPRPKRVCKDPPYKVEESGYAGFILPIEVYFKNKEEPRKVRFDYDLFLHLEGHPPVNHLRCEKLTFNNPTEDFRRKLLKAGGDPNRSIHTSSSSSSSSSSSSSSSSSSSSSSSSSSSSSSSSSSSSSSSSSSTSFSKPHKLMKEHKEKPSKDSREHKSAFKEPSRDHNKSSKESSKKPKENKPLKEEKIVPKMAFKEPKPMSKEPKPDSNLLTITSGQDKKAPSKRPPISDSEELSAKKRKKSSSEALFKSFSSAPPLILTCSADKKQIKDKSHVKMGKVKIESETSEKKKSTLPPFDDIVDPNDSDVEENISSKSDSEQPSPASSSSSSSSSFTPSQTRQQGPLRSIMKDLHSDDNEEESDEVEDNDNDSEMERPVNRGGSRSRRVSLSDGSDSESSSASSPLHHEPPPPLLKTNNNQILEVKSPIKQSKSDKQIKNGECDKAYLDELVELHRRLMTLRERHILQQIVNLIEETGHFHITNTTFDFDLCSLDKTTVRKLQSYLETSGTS
rRNA inh HTS OD600: second read-out of rRNA inh HTS, no call of its own (marks repeat the call); OD600 change, %; measured here: OD600 growth;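 optical density of the mix in the first replicate; 0 = DMSO median and -100 = no signal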
rRNA inh HTS RFP: recorded beside rRNA inh HTS, whose call it bears; RFP signal change, %; measured here: RFP humanized mutant strains;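 first replicate; 0 = DMSO median and -100 = no signal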
Starred values were filed as active, the others as inactive; & = joins results of further samples. The list is partial; rates above refer to the full screens.

`Cc1cc(-c2ccc(Cl)cc2Cl)c(C#N)c(=O)[nH]1` gave Beta cell apopt -0.9, rRNA inh HTS -9.5, Vif TR-FRET -5.7%, A1 inh -0.3, Calb FLC 4.2, T cruzi repl -3.5, RanGTP-Impb inh 3.4, AF4-AF9 inh -10.0, rRNA inh HTS OD600 -0.3 and rRNA inh HTS RFP -1.2.
`COCCCn1c(=S)[nH]c2ccc(N3CCOCC3)cc2c1=O` gave Beta cell apopt 4.0, Vif TR-FRET 9.6%, A1 inh -1.0, Calb FLC 11.7, T cruzi repl 10.4 and RanGTP-Impb inh 6.2.
Screening CN(C)CCNCCCOc1ccccc1-c1ccccc1 returned Beta cell apopt -1.7, Vif TR-FRET 7.3%, A1 inh 1.2, Calb FLC -19.4, T cruzi repl -11.5 and RanGTP-Impb inh 2.4.
`COc1ccc(Cc2nc3ccc(C(=O)NCCSC)cc3o2)cc1` gave Beta cell apopt -1.7, rRNA inh HTS 0.5, Vif TR-FRET -2.2%, A1 inh -0.2, Calb FLC 9.6, T cruzi repl -14.1, RanGTP-Impb inh -0.8, AF4-AF9 inh -15.0, rRNA inh HTS OD600 -6.1 and rRNA inh HTS RFP 2.0.
For CCc1ccc2[nH]c(=O)c(C(c3nnnn3Cc3ccc(OC)cc3)N3CCOCC3)cc2c1 (stereo not given) the results were Vif TR-FRET 3.2%&2.8%, Calb FLC -3.9, T cruzi repl -11.7 and RanGTP-Impb inh -0.2.
`N#CC(C(=O)NC1CC1)c1nc2ccccc2nc1N1CCN(C/C=C/c2ccccc2)CC1` (stereo not given) gave Beta cell apopt -3.4, Vif TR-FRET -4.0%, A1 inh 1.0, Calb FLC -2.6, T cruzi repl 25.8 and RanGTP-Impb inh 0.7.
Screening COc1cccc(CC(=O)OC(C)C(=O)NCc2ccc3c(c2)OCO3)c1 (stereo not given) returned Beta cell apopt 0.1, rRNA inh HTS -30.5*, Vif TR-FRET -1.1%, A1 inh -0.1, T cruzi repl -2.0, RanGTP-Impb inh inconclusive, AF4-AF9 inh -1.9, rRNA inh HTS OD600 3.2* and rRNA inh HTS RFP 9.6*.
Screening CC(C)c1[nH]nc2c1C(c1cccs1)C(C#N)=C(N)O2 (stereo not given) returned Beta cell apopt -5.7, Vif TR-FRET 4.0%, A1 inh -0.6, Calb FLC -0.4, T cruzi repl -12.1 and RanGTP-Impb inh 0.5.
Clc1ccc(-c2nnc3n2CCCC3)cc1 was read as Beta cell apopt -4.1, Vif TR-FRET -1.0%, A1 inh 0.5, Calb FLC -11.5, T cruzi repl -10.3 and RanGTP-Impb inh 3.5.
For On1nnc2ccc3ccccc3c21 the results were Beta cell apopt 2.4, rRNA inh HTS 9.2, Vif TR-FRET 3.9%, A1 inh -0.1, Calb FLC 4.4, T cruzi repl -5.1, RanGTP-Impb inh -1.3, AF4-AF9 inh -4.8, rRNA inh HTS OD600 6.1 and rRNA inh HTS RFP 0.7.
Screening CCCCN(C(=O)c1cc2c(s1)CCC2)c1c(N)n(CCCC)c(=O)[nH]c1=O returned Beta cell apopt -12.5, rRNA inh HTS 3.5, Vif TR-FRET 5.4%, A1 inh 1.5, Calb FLC -16.2, T cruzi repl -2.5, RanGTP-Impb inh -2.9, AF4-AF9 inh -0.1, rRNA inh HTS OD600 5.2 and rRNA inh HTS RFP 0.1.
For O=C(NCc1ccccc1)c1ccc2nc(-c3ccco3)c(-c3ccco3)nc2c1 the results were Beta cell apopt -8.4, Vif TR-FRET 0.48µM*, A1 inh 0.4, Calb FLC 18.2, T cruzi repl 28.1 and RanGTP-Impb inh 25.0*.
CO/N=C(\c1nonc1N)N1CCN(c2ccc([N+](=O)[O-])cc2Cl)CC1 was read as Beta cell apopt 5.8, Vif TR-FRET -2.1%, A1 inh -0.1, Calb FLC -2.7, T cruzi repl 13.7 and RanGTP-Impb inh 5.3.
`CCOC(=O)c1c[nH]c2c(Cl)ccc(Cl)c2c1=O` gave Beta cell apopt 4.6, Vif TR-FRET -3.9%, A1 inh -0.6, Calb FLC 46.7, T cruzi repl 0.1 and RanGTP-Impb inh 5.5.
Screening NS(=O)(=O)c1ccc(NNC(=O)c2ccc(F)cc2F)cc1 returned Beta cell apopt -5.2, rRNA inh HTS 11.7, Vif TR-FRET -3.3%, A1 inh -0.3, Calb FLC 1.8, T cruzi repl 15.2, RanGTP-Impb inh 2.5, AF4-AF9 inh -0.1, rRNA inh HTS OD600 10.0 and rRNA inh HTS RFP 3.7.
For CCCCCCCCCCCCN1[C@@H](CC(=O)OC)c2cc(F)cc(F)c2S1(=O)=O the results were Beta cell apopt 8.0, A1 inh -1.0, Calb FLC -12.3, T cruzi repl 50.4 and RanGTP-Impb inh 4.0.
CCOc1ccc(-c2cc(C(=O)NN=C3CCN(C)CC3)[nH]n2)cc1 was read as Beta cell apopt 6.9, rRNA inh HTS 7.2, Vif TR-FRET 14.3%, A1 inh -0.1, Calb FLC 7.2, T cruzi repl -16.9, RanGTP-Impb inh 3.0, AF4-AF9 inh 0.0, rRNA inh HTS OD600 4.7 and rRNA inh HTS RFP 2.1.
Nc1cc(C(F)(F)F)ccc1Nc1ccccc1 was read as Beta cell apopt 9.0, Vif TR-FRET 4.0%, A1 inh 0.0, Calb FLC 4.5, T cruzi repl -3.6 and RanGTP-Impb inh 2.9.
For O=C(COC(=O)CSc1ccc(Cl)cc1)Nc1ccccc1 the results were Beta cell apopt -4.2, Vif TR-FRET -2.1%, A1 inh -2.4 and AF4-AF9 inh 0.2.
CC1=[N+](C)N(c2ccccc2)C(=O)C1N=Cc1c(Cl)cccc1Cl (stereo not given) was read as Beta cell apopt -2.4, A1 inh 0.8, Calb FLC 37.0, T cruzi repl 8.3, RanGTP-Impb inh -0.8 and AF4-AF9 inh 0.6.
For CCOC(=O)c1sc(NC(=O)C2CC2)nc1C the results were Beta cell apopt -6.9, rRNA inh HTS -3.8, Vif TR-FRET 2.1%, A1 inh 0.6, Calb FLC 29.5, T cruzi repl -3.7, RanGTP-Impb inh 4.9, AF4-AF9 inh 3.5, rRNA inh HTS OD600 1.7 and rRNA inh HTS RFP 2.1.
COc1ccc(C(=O)OCC(=O)c2ccc(Cl)s2)c(OC)c1OC was read as rRNA inh HTS -4.1, Vif TR-FRET -8.8%, A1 inh -1.0, Calb FLC 0.5, T cruzi repl -1.5, RanGTP-Impb inh 0.7, AF4-AF9 inh -0.4, rRNA inh HTS OD600 -4.4 and rRNA inh HTS RFP -0.5.
Screening O=C(O)CN1C(=O)/C(=C/C=C/c2ccccc2)SC1=S returned Beta cell apopt -2.4, rRNA inh HTS 0.9, Vif TR-FRET 5.2%, A1 inh 1.0, Calb FLC 0.1, T cruzi repl 5.4, RanGTP-Impb inh 1.6, AF4-AF9 inh -0.5, rRNA inh HTS OD600 2.7 and rRNA inh HTS RFP -3.8.
Screening COc1ccccc1C(=O)Nc1c(C)n(C)n(-c2ccccc2)c1=O returned Beta cell apopt -1.4, Vif TR-FRET 3.0%, A1 inh -0.1, Calb FLC 2.6, T cruzi repl -34.2 and RanGTP-Impb inh 4.4.
For COC(=O)C1=C(N)Oc2cc(C)[nH]c(=O)c2C1c1cccnc1 (stereo not given) the results were Beta cell apopt -9.9, Vif TR-FRET -3.8%, A1 inh -0.1, Calb FLC -1.2, T cruzi repl -15.7 and RanGTP-Impb inh 1.7.
For O=C(NNC(=O)c1ccc2nonc2c1)Nc1ccc(Cl)cc1 the results were Beta cell apopt 6.5, rRNA inh HTS -2.5, Vif TR-FRET -2.6%, A1 inh 0.9, Calb FLC 6.3, T cruzi repl -11.8, RanGTP-Impb inh 1.0, AF4-AF9 inh 0.7, rRNA inh HTS OD600 9.2 and rRNA inh HTS RFP 1.5.
Screening N#C/C(=C\c1ccco1)C(=O)Nc1cccc2ncccc12 returned Beta cell apopt -2.7, rRNA inh HTS 1.7, A1 inh 0.0, Calb FLC -1.4, T cruzi repl -16.6, RanGTP-Impb inh 9.1, AF4-AF9 inh 2.7, rRNA inh HTS OD600 8.6 and rRNA inh HTS RFP 2.3.
`O=C(NCc1nc2ccccc2[nH]1)C1CCCCC1` gave Beta cell apopt -6.1, rRNA inh HTS 5.0, Vif TR-FRET 22.4%, A1 inh 0.1, Calb FLC -1.3, T cruzi repl -11.3, RanGTP-Impb inh 2.1, AF4-AF9 inh -2.6, rRNA inh HTS OD600 -0.3 and rRNA inh HTS RFP -6.6.
O=C1CCC([N+](=O)[O-])C(c2ccc(C(F)(F)F)cc2)N1 (stereo not given) was read as Beta cell apopt 0.4, rRNA inh HTS 4.2, A1 inh 0.2, Calb FLC 0.5, T cruzi repl -13.3, RanGTP-Impb inh 4.6, AF4-AF9 inh 0.2, rRNA inh HTS OD600 6.0 and rRNA inh HTS RFP 2.5.
CCOc1ccc2nc(SCc3cccc(C)c3)nc(C)c2c1 was read as Beta cell apopt 3.0, A1 inh -0.1, Calb FLC -11.4, T cruzi repl -1.1 and RanGTP-Impb inh 0.9.
Screening N/C(Cc1cccs1)=N\OC(=O)COc1ccccc1 returned Vif TR-FRET 1.9%, A1 inh 0.3, Calb FLC -3.7, T cruzi repl 14.8 and RanGTP-Impb inh 2.9.
NS(=O)(=O)c1ccc(NC(=O)CCC2CCCCC2)cc1 was read as Vif TR-FRET 11.8%, A1 inh -0.6, Calb FLC -25.9, T cruzi repl -26.3 and RanGTP-Impb inh inconclusive.
`CCOC(=O)C(NC(=O)CC)(N1CCc2ccccc2C1)C(F)(F)F` (stereo not given) gave Beta cell apopt -7.2, Vif TR-FRET 21.6%, A1 inh -1.8, Calb FLC -2.0, T cruzi repl 5.9 and RanGTP-Impb inh -1.0.
`O=C(CCc1c[nH]c2ccccc12)NCc1ccc2c(c1)OCO2` gave Beta cell apopt -5.6, Vif TR-FRET 0.7%, A1 inh -0.5, Calb FLC 2.8, T cruzi repl 6.2 and RanGTP-Impb inh inconclusive.
`O=C(CCc1nc2ccccc2c(=O)[nH]1)Nc1cc(Cl)ccc1N1CCCCC1` gave Beta cell apopt 2.1, Vif TR-FRET 10.7%, A1 inh 0.6 and AF4-AF9 inh -0.5.

Quoted at random: 2 records from the list.
`O=C(CCc1c[nH]c2ccccc12)NCc1ccc2c(c1)OCO2` gave Beta cell apopt -5.6, Vif TR-FRET 0.7%, A1 inh -0.5, Calb FLC 2.8, T cruzi repl 6.2 and RanGTP-Impb inh inconclusive.
Screening N/C(Cc1cccs1)=N\OC(=O)COc1ccccc1 returned Vif TR-FRET 1.9%, A1 inh 0.3, Calb FLC -3.7, T cruzi repl 14.8 and RanGTP-Impb inh 2.9.

Assay outcomes: PubChem, several laboratories
